Env fusion inh = HIV envelope-mediated fusion inhibition; 1.1% of 360,000 active; inhibition, % at 12.3 µM; AID 651610; HeLa-JRFL Env/CEM21 cell fusion, luciferase;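 active = mean replicate inhibition score of at least 50 and every replicate individually at or above 50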;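 note: 0% = plate neutral controls and 100% = maraviroc near 300 nM; one replicate is shown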
UUG fidelity = alters start codon recognition fidelity in yeast | S. cerevisiae UUG-firefly luciferase reporter, luminescence/redox ratio | activity score, % at 18.7 µM | 0.13% of 350,000 active | AID 602363;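 active = replicate mean at a twofold rise or more, about +100% in these data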;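 note: firefly luciferase made from a UUG start codon reports start codon fidelity; reporter light over untreated wells divided by growth signal over untreated wells; some hits fall short of that in this replicate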
An asterisk follows results filed as active; [ ] = another dose, or the depositor's remark.

molecule	Env fusion inh	UUG fidelity
CN(C)Cc1cn(CC[C@H]2CC[C@@H](NC(=O)Nc3ccccc3F)[C@H](CO)O2)nn1	-19.5[16.7 µM]	-9.9
COc1ccc(NC(=O)N(C)C[C@H]2OCCCC[C@@H](C)Oc3ccc(NC(=O)CCC(F)(F)F)cc3C(=O)N([C@@H](C)CO)C[C@H]2C)cc1	-0.1[16.7 µM]	12.7
O=C(C[C@@H]1C[C@@H]2c3cc(NC(=O)C4CCC4)ccc3O[C@@H]2[C@H](CO)O1)NCc1ccc(Cl)cc1	-18.8[16.7 µM]	-1.8
CNC[C@H]1Oc2cc(-c3ccccc3F)ccc2S(=O)(=O)N([C@@H](C)CO)C[C@@H]1C	-10.4[16.7 µM]	-2.1
C[C@@H]1CN([C@H](C)CO)C(=O)c2cc(C#CC3CCCC3)cnc2O[C@H]1CN(C)C(=O)C1CCC1	1.5[16.7 µM]	20.2
C[C@@H]1CN([C@H](C)CO)C(=O)c2cc(NS(=O)(=O)c3ccc(Cl)cc3)ccc2O[C@@H](C)CCCCO[C@H]1CN(C)Cc1ccccc1	21.3[16.7 µM]	30.7
COc1ccc(NC(=O)Nc2ccc3c(c2)CC(=O)N([C@H](C)CO)C[C@H](C)[C@@H](CN(C)S(=O)(=O)c2cn(C)cn2)O3)cc1	-3.1[16.7 µM]	-1.3
CC(C)NC(=O)N(C)C[C@@H]1OCCCC[C@H](C)Oc2ccc(NC(=O)Nc3cccc4ccccc34)cc2C(=O)N([C@@H](C)CO)C[C@H]1C	21.7[16.7 µM]	-8.5
CC(=O)Nc1ccc2c(c1)C(=O)N(C)[C@@H]1CC[C@@H](CC(=O)NCc3ccc(F)cc3)O[C@H]1CO2	-24.6[16.7 µM]	8.7
COC(=O)c1ccc([C@@H]2C=C(C(=O)NCc3ccccc3)O[C@H](OCCCCO)C2)cc1	-13.9[16.7 µM]	-7.6
COc1ccc(S(=O)(=O)Nc2ccc3c(c2)C(=O)N([C@@H](C)CO)C[C@H](C)[C@@H](CN(C)S(=O)(=O)c2cccs2)OCCCC[C@H](C)O3)cc1	-13.9[16.7 µM]	27.2
C[C@@H]1CCCCO[C@@H](CN(C)S(=O)(=O)c2cccs2)[C@@H](C)CN([C@H](C)CO)C(=O)c2cc(NS(=O)(=O)c3cccs3)ccc2O1	-16.6[16.7 µM]	-1.4
Cc1ccc(S(=O)(=O)N(C)C[C@@H]2Oc3ccc(NC(=O)C4CCCCC4)cc3C(=O)N([C@@H](C)CO)C[C@@H]2C)cc1	-3.3[16.7 µM]	2.0
Cc1cc(C(=O)Nc2cccc3c2O[C@H](CN(C)CC2CC2)[C@H](C)CN([C@@H](C)CO)C3=O)n(C)n1	-5.3[16.7 µM]	-6.8
Cc1cc(C(=O)Nc2cccc3c2O[C@@H](CN(C)S(=O)(=O)c2ccc(Cl)cc2)[C@@H](C)CN([C@H](C)CO)C3=O)n(C)n1	-7.0[16.7 µM]	0.7
O=C(C[C@H]1CC[C@H](NC(=O)Nc2ccc(C(F)(F)F)cc2)[C@H](CO)O1)NCCN1CCCC1	-3.2[16.7 µM]	-7.8
COc1ccc(NC(=O)N[C@@H]2CC[C@H](CC(=O)NC3CCCCC3)O[C@H]2CO)cc1	14.1[16.7 µM]	3.3
N#C[C@@H]1[C@@H](c2ccc(C#Cc3ccc(F)cc3)cc2)[C@H](CO)N1C(=O)C1CCC1	3.3[16.7 µM]	10.7
CC(C)NC(=O)Nc1cccc2c1O[C@@H](CN(C)Cc1ccccc1)[C@H](C)CN([C@@H](C)CO)C2=O	23.8[16.7 µM]	-6.3
Cc1ccc(S(=O)(=O)Nc2ccc3c(c2)CC(=O)N([C@H](C)CO)C[C@H](C)[C@@H](CN(C)C(=O)Nc2cccc4ccccc24)O3)cc1	-7.0[16.7 µM]	0.5
COc1ccc(NC(=O)Nc2ccc3c(c2)C(=O)N([C@H](C)CO)C[C@H](C)[C@H](CN(C)C(=O)c2ccccc2)OCCCC[C@@H](C)O3)cc1	7.8[16.7 µM]	5.2
CCCN(C)C[C@@H]1OCc2cn(nn2)CCCC(=O)N([C@@H](C)CO)C[C@@H]1C	-9.0[16.7 µM]	1.0
COc1ccc(NC(=O)N(C)C[C@@H]2OCCCC[C@@H](C)Oc3ccc(NC(=O)Nc4cccc5ccccc45)cc3C(=O)N([C@H](C)CO)C[C@@H]2C)cc1	-5.0[16.7 µM]	5.9
C[C@H]1CN([C@@H](C)CO)C(=O)c2cc(Br)cnc2O[C@@H]1CN(C)C(=O)C1CCCCC1	3.7[16.7 µM]	8.2
COc1ccc(NC(=O)Nc2ccc3c(c2)C(=O)N([C@H](C)CO)C[C@@H](C)[C@@H](CN(C)Cc2ccncc2)OCCCC[C@@H](C)O3)cc1	-1.0[16.7 µM]	-3.5

Later entries:
molecule	Env fusion inh	UUG fidelity
C[C@@H]1CN([C@H](C)CO)C(=O)c2cc(NC(=O)C3CCCCC3)ccc2O[C@@H]1CN(C)Cc1ccccc1	2.1[16.7 µM]	2.6
CC(C)CC#Cc1ccc2c(c1)O[C@H](CN(C)C(=O)NC(C)C)[C@H](C)CN([C@@H](C)CO)S2(=O)=O	-4.3[16.7 µM]	17.8
C[C@H](CO)N1C[C@H](C)[C@@H](CN(C)C(=O)Nc2ccccc2)Oc2ncc(-c3ccccc3)cc2C1=O	-17.8[16.7 µM]	18.6
C[C@H](CO)N1C[C@H](C)[C@@H](CN(C)Cc2ccc(-c3ccccc3)cc2)Oc2c(NC(=O)c3nc4ccccc4s3)cccc2C1=O	-6.9[16.7 µM]	1.7
C[C@H]1CN([C@@H](C)CO)C(=O)c2cc(NC(=O)Nc3ccccc3)ccc2O[C@H]1CN(C)S(=O)(=O)c1ccc(F)cc1	8.7[16.7 µM]	29.7
CCC(=O)Nc1ccc2c(c1)C(=O)N(C)[C@@H]1CC[C@@H](CC(=O)N[C@@H](C)c3ccccc3)O[C@@H]1CO2	-11.4[16.7 µM]	-3.1
C[C@@H]1CN([C@H](C)CO)C(=O)c2cccc(NC(=O)Nc3ccccc3)c2O[C@H]1CN(C)Cc1ccc(C(=O)Nc2ccccc2N)cc1	0.8[16.7 µM]	1.0
C[C@H]1CCCCO[C@H](CN(C)C(=O)Nc2cccc3ccccc23)[C@@H](C)CN([C@@H](C)CO)C(=O)c2cc(NC(=O)Nc3ccccc3)ccc2O1	4.6[16.7 µM]	-6.6
CN1CCN(C(=O)C[C@@H]2CC[C@H]3[C@@H](COc4ccc(NC(=O)C5CCCCC5)cc4C(=O)N3C)O2)CC1	-3.4[16.7 µM]	-8.8
O=C(NCC[C@@H]1CC[C@@H](NS(=O)(=O)c2cccc(F)c2)[C@@H](CO)O1)C1CCOCC1	1.0[16.7 µM]	-11.8
C[C@@H]1CCCCO[C@@H](CN(C)Cc2ccc(C(=O)O)cc2)[C@H](C)CN([C@@H](C)CO)C(=O)c2cc(NC(=O)NC3CCCCC3)ccc2O1	18.8[16.7 µM]	-0.6
C[C@@H]1CCCCO[C@@H](CN(C)C(=O)Nc2ccc(C(F)(F)F)cc2)[C@H](C)CN([C@@H](C)CO)C(=O)c2cc(NS(=O)(=O)c3ccccc3)ccc2O1	26.8[16.7 µM]	6.5
C[C@H]1CN([C@@H](C)CO)C(=O)Cc2cc(NC(=O)Nc3cccc4ccccc34)ccc2O[C@@H]1CN(C)CC1CCCCC1	5.9[16.7 µM]	-1.7
C[C@@H]1CN([C@H](C)CO)C(=O)c2cc(NS(=O)(=O)c3ccc(Cl)cc3)ccc2O[C@@H]1CN(C)Cc1ccncc1	11.9[16.7 µM]	-27.0
C[C@@H](NC(=O)C[C@H]1C[C@H]2c3cc(NC(=O)Nc4ccccc4F)ccc3O[C@H]2[C@H](CO)O1)c1ccccc1	5.4[16.7 µM]	-0.2
O=C(C[C@H]1C[C@@H]2c3cc(NC(=O)C4CCC4)ccc3O[C@@H]2[C@H](CO)O1)NCc1ccccc1	-11.4[16.7 µM]	3.3
C[C@@H](NC(=O)C[C@@H]1CC[C@@H]2[C@H](COC[C@@H](O)CN2Cc2ccc(C(F)(F)F)cc2)O1)c1ccccc1	18.4[16.7 µM]	1.3
C/C=C/c1ccc2c(c1)O[C@H](CN(C)C(=O)c1cccc(F)c1)[C@@H](C)CN([C@H](C)CO)S2(=O)=O	-11.3[16.7 µM]	-2.5
C[C@@H]1CN([C@@H](C)CO)C(=O)c2cc(N(C)C)ccc2O[C@@H]1CN(C)Cc1ccc2c(c1)OCO2	15.7[16.7 µM]	-2.5
COc1ccccc1S(=O)(=O)N(C)C[C@H]1Oc2cc(C#CCC(C)C)ccc2S(=O)(=O)N([C@H](C)CO)C[C@@H]1C	25.6[16.7 µM]	-0.5
C[C@H](CO)N1C[C@H](C)[C@H](CN(C)C(=O)Nc2ccc(F)cc2)OCCCC[C@H](C)Oc2ccc(NS(=O)(=O)c3cn(C)cn3)cc2C1=O	-7.1[16.7 µM]	3.3
Cc1noc(C)c1S(=O)(=O)N(C)C[C@H]1Oc2ccc(NC(=O)Cn3cnnn3)cc2CC(=O)N([C@H](C)CO)C[C@H]1C	-7.7[16.7 µM]	6.2
C[C@H](CO)N1C[C@H](C)[C@H](CN(C)C(=O)NC2CCCCC2)Oc2ncc(-c3cccc(C(F)(F)F)c3)cc2C1=O	24.3[16.7 µM]	17.7
CC(=O)N(C)C[C@H]1Oc2cc(/C=C/c3ccccc3)ccc2S(=O)(=O)N([C@H](C)CO)C[C@H]1C	-4.5[16.7 µM]	13.6
Cc1ccc(-c2ccc3c(c2)O[C@H](CN(C)Cc2cncnc2)[C@@H](C)CN([C@@H](C)CO)S3(=O)=O)cc1	4.2[16.7 µM]	-2.6

Arranged by length of the SMILES (smallest number first): part of the list above.
molecule	Env fusion inh	UUG fidelity
O=C(NCC[C@@H]1CC[C@@H](NS(=O)(=O)c2cccc(F)c2)[C@@H](CO)O1)C1CCOCC1	1.0[16.7 µM]	-11.8
CC(=O)N(C)C[C@H]1Oc2cc(/C=C/c3ccccc3)ccc2S(=O)(=O)N([C@H](C)CO)C[C@H]1C	-4.5[16.7 µM]	13.6
C[C@H](CO)N1C[C@H](C)[C@H](CN(C)C(=O)Nc2ccc(F)cc2)OCCCC[C@H](C)Oc2ccc(NS(=O)(=O)c3cn(C)cn3)cc2C1=O	-7.1[16.7 µM]	3.3

The results go on:
molecule	Env fusion inh	UUG fidelity
CCCC(=O)Nc1ccc2c(c1)OC[C@H](C)N(C(=O)CC)C[C@@H](C)[C@H](OC)CN(C)C2=O	0.6[16.7 µM]	4.9
O=C(C[C@@H]1C=C[C@H](NC(=O)CCN2CCCCC2)[C@@H](CO)O1)Nc1nccs1	5.8[16.7 µM]	-0.2
C[C@H](CO)N1C[C@H](C)[C@H](CN(C)C(=O)CCC(F)(F)F)OCCCC[C@H](C)Oc2ccc(N(C)C)cc2C1=O	4.8[16.7 µM]	22.6
COCC#Cc1ccc2c(c1)O[C@H](CN(C)C(=O)COC)[C@H](C)CN([C@@H](C)CO)S2(=O)=O	-16.4[16.7 µM]	-13.5
CO[C@H]1CN(C)C(=O)c2cc(NC(C)=O)ccc2OC[C@H](C)N(CCC(F)(F)F)C[C@@H]1C	-23.1[16.7 µM]	23.8
COc1ccc(C#Cc2cnc3c(c2)C(=O)N([C@H](C)CO)C[C@@H](C)[C@@H](CN(C)CC2CCOCC2)O3)cc1	1.6[16.7 µM]	-0.2
O=C(C[C@H]1CC[C@@H]2[C@H](COC[C@H](O)CN2S(=O)(=O)c2cccc(F)c2)O1)NC1CCC1	0.0[16.7 µM]	11.8
C[C@H](CO)N1C[C@H](C)[C@@H](CN(C)S(=O)(=O)c2ccc(Cl)cc2)OCCCC[C@H](C)Oc2ccc(NS(C)(=O)=O)cc2C1=O	-3.2[16.7 µM]	13.8
N#C[C@H]1[C@@H](c2ccc(-c3ccccc3F)cc2)[C@@H](CO)N1C(=O)C1CCOCC1	0.9[16.7 µM]	16.4
Cc1ccc(S(=O)(=O)N[C@H]2CC[C@@H](CC(=O)NCCc3ccncc3)O[C@@H]2CO)cc1	10.5[16.7 µM]	5.1
C[C@@H]1CCCCO[C@H](CN(C)Cc2ccccc2)[C@H](C)CN([C@@H](C)CO)C(=O)c2cc(NC(=O)Nc3ccc(C(F)(F)F)cc3)ccc2O1	42.0[16.7 µM]	5.6
Cc1ccc(-c2cnc3c(c2)C(=O)N([C@@H](C)CO)C[C@H](C)[C@H](CN(C)C)O3)cc1	-7.4[16.7 µM]	-4.9
CCS(=O)(=O)Nc1ccc2c(c1)C(=O)N(C)[C@@H]1CC[C@@H](CC(=O)N3CCCCC3)O[C@H]1CO2	-0.9[16.7 µM]	7.1
C[C@@H]1CCCCO[C@@H](CN(C)C(=O)Nc2ccccc2)[C@H](C)CN([C@H](C)CO)C(=O)c2cc(NC(=O)CCCN(C)C)ccc2O1	8.3[16.7 µM]	7.0
Cc1ccc(S(=O)(=O)N(C)C[C@H]2OCCCC[C@@H](C)Oc3ccc(NC(=O)c4ccncc4)cc3C(=O)N([C@@H](C)CO)C[C@H]2C)cc1	-18.9[16.7 µM]	-7.8
COc1ccc(S(=O)(=O)N(C)C[C@@H]2Oc3ccc(NC(=O)C4CCCCC4)cc3CC(=O)N([C@H](C)CO)C[C@H]2C)cc1	3.3[16.7 µM]	8.1

Whole records as entered above:
Entry for Cc1ccc(-c2cnc3c(c2)C(=O)N([C@@H](C)CO)C[C@H](C)[C@H](CN(C)C)O3)cc1 : Env fusion inh = -7.4[16.7 µM]; UUG fidelity = -4.9
Entry for COc1ccc(NC(=O)N[C@@H]2CC[C@H](CC(=O)NC3CCCCC3)O[C@H]2CO)cc1 : Env fusion inh = 14.1[16.7 µM]; UUG fidelity = 3.3

High-throughput results (PubChem BioAssay)

This is a subset, so the mix of outcomes need not match the whole.
